Source: PubChem
LANA-H2A inh = blocks KSHV LANA binding to histone H2A/H2B. Q9QR71. cell-free LANA-H2A/H2B peptide, fluorescence polarization. inhibition, % (concentration not given with the values). 0.6% of 320,000 active. AID 2629; in the data active = inhibition mostly above about 10%, no sharp cut-off; inactive = mostly below about 6.7%;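 note: stock transfer was 7.5 nL into about 10 µL; 0% = median of vehicle wells and 100% = median of positive control wells; one replicate is shown; the record names a cut of 25% in any replicate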
Calb FLC = affects C. albicans growth with fluconazole | C. albicans CaCi-2 (fluconazole-resistant clinical isolate) + fluconazole, Alamar Blue growth, 48 h | growth inhibition, % (no concentration beside the values) | 0.57% of 300,000 active;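 active = most replicates above 75%; inconclusive = exactly half above 75%; inactive = most below 75%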;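 note: all wells also contain fluconazole at 8 µg/ml as a sub-toxic cotreatment; 0% = median of DMSO wells and 100% = median of geldanamycin control wells; wells of about 8 µL received 7.5 nL stock; the first replicate is given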
Beta apoptosis = blocks beta cell apoptosis; INS-1E cytokine-induced death, ATP luminescence, 48 h; percent of positive-control rescue, neutral wells zero; protection from apoptosis, % (concentration not given with the values); 0.8% of 300,000 active; AID 435005;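 active = all replicates at 75% or more, or half of them and the mean; inconclusive = half reach 75% but not the mean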;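 note: 0% = cytokine-treated negative control wells and 100% = positive control rescue; higher means more ATP so stronger rescue from cytokine killing; wells of about 40 µL received 100 nL stock; the first replicate is given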
UCH37 inh = human UCH37 deubiquitinating enzyme inhibition; Q9Y5K5; purified proteasome/UCH37, Ub-AMC cleavage fluorescence; inhibition, % (no concentration beside the values); 0.33% of 330,000 active; AID 588478;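 active = mean of two replicates above 20%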;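 note: 0% = compound-free wells with enzyme and 100% = wells lacking proteasome; stock transfer was 100 nL into about 20 µL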
Target sequence (Q9Y5K5 whole entry, looked up): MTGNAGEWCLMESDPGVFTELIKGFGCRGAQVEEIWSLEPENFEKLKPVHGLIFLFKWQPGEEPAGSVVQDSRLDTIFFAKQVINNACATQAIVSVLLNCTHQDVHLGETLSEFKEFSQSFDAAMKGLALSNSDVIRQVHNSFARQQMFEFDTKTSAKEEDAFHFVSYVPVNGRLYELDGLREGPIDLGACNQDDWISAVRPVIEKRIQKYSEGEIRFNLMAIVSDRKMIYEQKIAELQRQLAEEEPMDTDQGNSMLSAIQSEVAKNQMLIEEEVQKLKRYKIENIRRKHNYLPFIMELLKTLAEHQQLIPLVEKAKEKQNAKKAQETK
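Material: human UCH37 enzyme supplied as purified proteasome complex / Amount: 0.15 nM proteasome as dispensed / Buffer or medium: pH 7.4 Tris-HCl (50 mM) with ovalbumin, ATP-MgCl2, DTT / Times: preincubation 30 min, reaction 25 min, room temperature / Technique: AMC fluorescence from Ub-AMC cleavage, excitation 355 nm, emission 460 nm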
T cruzi repl = blocks replication of Trypanosoma cruzi | 1.4% of 300,000 active | inhibition, % (concentration not given with the values) | T. cruzi beta-gal in NIH3T3, luminescence, 90 h;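 active = mean inhibition across valid replicates above about 55%, limit read from the data; inconclusive = mean below that limit but half or more replicates reach it; inactive = mean below it, under half of replicates reach it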;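 note: signal also drops with host cell toxicity which is not excluded here; 0% = plate median of DMSO wells and 100% = zero luminescence signal; higher percent means less beta-gal luminescence so fewer parasites; stock transfer was 50 nL into about 50 µL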
Bfl-1 A1 inh = inhibitors of the anti-apoptotic protein A1, read as caspase activation | MEF A1-2A-BIM cells, Caspase-Glo 3/7 luminescence, 3 h; percent of clofoctol response, vehicle zero | caspase activation, % (concentration not given with the values) | 0.066% of 330,000 active | AID 2462;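 active = over half of replicate activation scores above 10%, or exactly half above 10 with the replicate mean above 10; inconclusive = replicate mean below 10 yet half the replicates above 10; inactive = over half of replicates below 10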;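 note: wells of about 30 µL received 50 nL stock; many hits fall short of the cut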
RanGTP-Imp inh = inhibitors of RanGTP-importin-beta interaction, primary screen, biochemical, FRET, CFP-Ran, YFP-importin-beta, homogeneous | 1.1% of 300,000 active | cell-free CFP-Ran/YFP-importin-beta FRET ratio | AID 2216 | inhibition, % (test concentration not listed);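 active = most replicates above 15%; inconclusive = exactly half above 15%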;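 note: 0% = DMSO wells and 100% = Ran loaded with GDP instead of GTP; wells of about 40 µL received 100 nL stock; the first replicate is given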
Beta2AR agonist = activates human beta-2 adrenergic receptor causing internalization | response, % (test concentration not listed) | Am2.2-beta2AR cells, FAP receptor internalization, flow cytometry; reference of the scale not given here | P07550 | 0.43% of 340,000 active;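 active = response above a set limit, near 3 SD of response in nonfluorescent compounds, cut at about 42% in these data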;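 note: stock transfer was 100 nL into about 11 µL; a reference agonist was the positive control; negative values mostly stem from fluorescent compounds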
Target sequence (P07550 whole entry, looked up): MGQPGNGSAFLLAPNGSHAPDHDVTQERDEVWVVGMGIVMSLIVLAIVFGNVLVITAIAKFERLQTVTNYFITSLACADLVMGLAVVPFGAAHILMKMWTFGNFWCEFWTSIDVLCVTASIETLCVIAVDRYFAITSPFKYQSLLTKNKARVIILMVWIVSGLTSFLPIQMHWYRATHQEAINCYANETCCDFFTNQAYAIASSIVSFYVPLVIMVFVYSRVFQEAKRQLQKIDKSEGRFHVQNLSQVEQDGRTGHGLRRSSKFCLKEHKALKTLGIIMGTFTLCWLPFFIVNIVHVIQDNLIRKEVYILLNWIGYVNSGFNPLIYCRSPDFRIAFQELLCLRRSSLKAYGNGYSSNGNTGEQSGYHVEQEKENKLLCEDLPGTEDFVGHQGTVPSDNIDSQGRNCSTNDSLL
* hit, by the source's call.

Results for O=C(CSc1nnc(-c2cccc(S(=O)(=O)N3CCCC3)c2)n1-c1ccccc1)Nc1cccc(C(=O)O)c1 ?
LANA-H2A inh: 2.7; Calb FLC: 1; Beta apoptosis: -6; UCH37 inh: 3.0; T cruzi repl: -10; Bfl-1 A1 inh: 0.7; RanGTP-Imp inh: 3.2; Beta2AR agonist: -3

How did O=C(NC1CCCCC1)C(c1ccncc1)N(C(=O)c1csnn1)c1ccc(F)cc1 (stereo not given) do in these assays?
LANA-H2A inh: -3.7; Calb FLC: 4; Beta apoptosis: -5; UCH37 inh: 2.2; T cruzi repl: 7; Bfl-1 A1 inh: 1.1; RanGTP-Imp inh: 3.8; Beta2AR agonist: 5

What do the screens show for `O=[N+]([O-])c1ccc(Sc2ccccn2)nc1`?
LANA-H2A inh: -3.0; Calb FLC: 16; Beta apoptosis: -3; UCH37 inh: 8.9; T cruzi repl: 3; Bfl-1 A1 inh: 0.3; RanGTP-Imp inh: 4.9; Beta2AR agonist: -8

Results for O=C(COc1ccc(-c2ccccc2)cc1)NNC(=O)Nc1ccccc1 ?
LANA-H2A inh: 1.5; Beta apoptosis: -1; UCH37 inh: 3.8; Bfl-1 A1 inh: 0.0; Beta2AR agonist: 3

How did Cn1c(Cn2c(=O)sc3ccccc32)nnc1SCC(=O)NCc1ccco1 do in these assays?
LANA-H2A inh: -0.4; Calb FLC: -3; Beta apoptosis: 0; UCH37 inh: -2.4; T cruzi repl: -5; Bfl-1 A1 inh: -0.3; RanGTP-Imp inh: -0.4; Beta2AR agonist: 23

Results for COC(=O)N/N=C/c1cc(C)n(-c2cccc3ccccc23)c1C ?
LANA-H2A inh: -0.7; Calb FLC: 1; Beta apoptosis: 9; T cruzi repl: -1; Bfl-1 A1 inh: -0.7; RanGTP-Imp inh: -1.5; Beta2AR agonist: -8

What do the screens show for `COc1ccc2nc(C)cc(Nc3cccc(C(=O)O)c3)c2c1`?
LANA-H2A inh: 9.5; Calb FLC: -6; Beta apoptosis: -4; UCH37 inh: 10; T cruzi repl: 7; Bfl-1 A1 inh: 0.3; RanGTP-Imp inh: 0.1; Beta2AR agonist: 9

Results for CC(C)(C)c1ccc(S(=O)(=O)N2CCN(c3ncccn3)CC2)cc1 ?
LANA-H2A inh: -1.4; Calb FLC: -2; UCH37 inh: 3.1; T cruzi repl: 17; Bfl-1 A1 inh: 0.7; RanGTP-Imp inh: -1.3; Beta2AR agonist: -1

What do the screens show for `COc1cccc(CNc2ccc(N3CCCCC3)cc2)c1OC`?
LANA-H2A inh: 2.3; Beta apoptosis: 20; UCH37 inh: 0.8; Bfl-1 A1 inh: 0.5; Beta2AR agonist: 8

How did CCc1ccc(CN(C)C(=O)CCc2nnc(Cc3cccc(C)c3)o2)nc1 do in these assays?
LANA-H2A inh: -1.6; Calb FLC: 21; Beta apoptosis: -1; UCH37 inh: 0.6; T cruzi repl: -10; Bfl-1 A1 inh: -0.2; RanGTP-Imp inh: -1.0; Beta2AR agonist: -1

How did O=C(NNc1ncccc1Cl)c1c(Cl)cccc1Cl do in these assays?
LANA-H2A inh: 1.0; Calb FLC: -1; Beta apoptosis: -2; UCH37 inh: 5.6; T cruzi repl: -6; Bfl-1 A1 inh: -0.4; RanGTP-Imp inh: 2.6; Beta2AR agonist: 3

Results for CCN(CC)C(=O)CSc1nc(N)c2c3c(sc2n1)CC(C)CC3 (stereo not given) ?
LANA-H2A inh: -1.7; Calb FLC: -3; Beta apoptosis: -2; UCH37 inh: 1.4; T cruzi repl: 13; Bfl-1 A1 inh: -0.7; RanGTP-Imp inh: 4.1; Beta2AR agonist: -20

How did COc1ccccc1N(CC(=O)NCc1ccccc1)C(=O)CCC(=O)Nc1nccs1 do in these assays?
LANA-H2A inh: 6.1; Calb FLC: 7; Beta apoptosis: 0; UCH37 inh: 2.3; T cruzi repl: 11; Bfl-1 A1 inh: -1.1; RanGTP-Imp inh: 4.3; Beta2AR agonist: -13

What do the screens show for `CN(C)C(CNC(=O)C1CCN(S(=O)(=O)c2ccc(Cl)cc2)CC1)c1ccccc1` (stereo not given)?
LANA-H2A inh: -1.4; Calb FLC: 3; UCH37 inh: 1.9; T cruzi repl: 17; Bfl-1 A1 inh: -0.7; RanGTP-Imp inh: -3.2; Beta2AR agonist: -2

What do the screens show for `COc1ccc(S(=O)(=O)Nc2cccc3c2O[C@@H](CN(C)Cc2ccc(C(=O)O)cc2)[C@@H](C)CN([C@H](C)CO)C3=O)cc1`?
LANA-H2A inh: 2.1; Beta apoptosis: 5; UCH37 inh: 1.2; Bfl-1 A1 inh: 0.4; Beta2AR agonist: 1

How did CC(O)c1c(OCc2ccccc2)ncnc1OCc1ccccc1 (stereo not given) do in these assays?
LANA-H2A inh: 0.0; Calb FLC: 0; Beta apoptosis: 1; UCH37 inh: 1.7; T cruzi repl: 9; Bfl-1 A1 inh: 2.3; RanGTP-Imp inh: 0.1; Beta2AR agonist: 98*

How did COc1ccc(S(=O)(=O)Nc2cccnc2)cc1OC do in these assays?
LANA-H2A inh: -2.3; Calb FLC: 5; Beta apoptosis: -1; UCH37 inh: 0.0; T cruzi repl: -13; Bfl-1 A1 inh: -1.1; RanGTP-Imp inh: -1.6; Beta2AR agonist: -4

What do the screens show for `COc1ccccc1NC1=C(Cl)C(=O)N(C2CCCCC2)C1=O`?
LANA-H2A inh: 5.9; Calb FLC: 4; Beta apoptosis: 14; UCH37 inh: 6.3; T cruzi repl: -6; Bfl-1 A1 inh: -0.6; RanGTP-Imp inh: -1.8; Beta2AR agonist: 5

How did COc1ccc(-c2[nH]c3ccccc3c2SCCNC(=O)c2cc3ccccc3oc2=O)cc1 do in these assays?
LANA-H2A inh: -4.4; Calb FLC: 13; Beta apoptosis: 0; UCH37 inh: 3.4; T cruzi repl: -36; Bfl-1 A1 inh: 0.0; RanGTP-Imp inh: inconclusive; Beta2AR agonist: 0

How did O=C(Nc1nnc(-c2ccc3c(c2)CCCC3)o1)c1ccccc1 do in these assays?
LANA-H2A inh: 5.5; Calb FLC: 88*; Beta apoptosis: 7; T cruzi repl: 45; Bfl-1 A1 inh: -0.1; RanGTP-Imp inh: 10; Beta2AR agonist: 4

Results for Cc1ccc(C2/C(=C(/O)c3ccc(OC(C)C)cc3)C(=O)C(=O)N2CCN2CCOCC2)cc1 (stereo not given) ?
LANA-H2A inh: 7.5; Calb FLC: 0; Beta apoptosis: -2; UCH37 inh: 9.4; T cruzi repl: 6; Bfl-1 A1 inh: 0.8; RanGTP-Imp inh: 3.9; Beta2AR agonist: 2

Results for O=C(Nc1ccc(N2CCN(C(=O)c3ccc(Cl)cc3)CC2)cc1)c1ccc([N+](=O)[O-])o1 ?
Calb FLC: 1; UCH37 inh: 4.4; T cruzi repl: 93*; RanGTP-Imp inh: 3.0; Beta2AR agonist: 40

Results for Cc1cc(OCC(=O)N2CCN(c3ncccn3)CC2)ccc1Cl ?
LANA-H2A inh: -1.2; Calb FLC: -5; Beta apoptosis: -2; UCH37 inh: 5.6; T cruzi repl: 7; Bfl-1 A1 inh: 0.1; RanGTP-Imp inh: -0.8; Beta2AR agonist: -1

How did CCNc1nc(-c2cc(C)n(Cc3ccco3)c2C)cs1 do in these assays?
LANA-H2A inh: 3.4; Calb FLC: -1; Beta apoptosis: -1; UCH37 inh: -1.1; T cruzi repl: 11; Bfl-1 A1 inh: 1.3; RanGTP-Imp inh: -4.9; Beta2AR agonist: 9

Results for CCCN(CCC)CCNC(=O)C1(O)c2ccccc2NC(=O)N1c1cccc(OC)c1 (stereo not given) ?
LANA-H2A inh: -4.3; Calb FLC: -8; Beta apoptosis: -10; UCH37 inh: 2.2; T cruzi repl: 2; Bfl-1 A1 inh: -0.1; RanGTP-Imp inh: 1.4; Beta2AR agonist: 4

How did COc1cc(NC(=O)c2cccc([N+](=O)[O-])c2)ccc1NC(=O)c1ccco1 do in these assays?
LANA-H2A inh: -1.0; Calb FLC: -8; Beta apoptosis: -3; UCH37 inh: 1.2; T cruzi repl: 16; Bfl-1 A1 inh: -0.5; RanGTP-Imp inh: -0.5; Beta2AR agonist: -10

Results for Cc1ccc(SCc2nc(-c3ccccn3)no2)cc1 ?
LANA-H2A inh: -3.8; Calb FLC: -5; Beta apoptosis: -4; UCH37 inh: 4.8; T cruzi repl: 0; Bfl-1 A1 inh: 1.3; RanGTP-Imp inh: inconclusive; Beta2AR agonist: -12

Results for COc1ccc(S(=O)(=O)NCc2csc(C)n2)cc1OC ?
LANA-H2A inh: 1.9; Calb FLC: -4; Beta apoptosis: -3; UCH37 inh: 1.1; T cruzi repl: -12; Bfl-1 A1 inh: 0.5; RanGTP-Imp inh: -5.1; Beta2AR agonist: 6

Results for CC1(C)CC2CC(C)(CN2C(=O)COC(=O)c2cccc(O)c2)C1 (stereo not given) ?
LANA-H2A inh: -8.2; Beta apoptosis: -1; UCH37 inh: 0.7; Bfl-1 A1 inh: 0.0; Beta2AR agonist: -2

Results for COc1ccc(NC(=O)COC(=O)Cc2coc3cc(OC)ccc23)c(OC)c1 ?
LANA-H2A inh: 1.5; Beta apoptosis: 2; UCH37 inh: -0.6; Bfl-1 A1 inh: -1.5; Beta2AR agonist: 1

Results for COc1cccc2sc(N(CCCN(C)C)C(=O)c3sc4ccccc4c3Cl)nc12 ?
LANA-H2A inh: 3.0; Calb FLC: -17; Beta apoptosis: -2; UCH37 inh: 6.8; T cruzi repl: 27; Bfl-1 A1 inh: 0.0; RanGTP-Imp inh: -0.7; Beta2AR agonist: 33

Results for CCc1nnc(NC(=O)CCC(=O)NCCc2ccccc2)s1 ?
LANA-H2A inh: 1.6; Calb FLC: -2; Beta apoptosis: -2; UCH37 inh: 2.3; T cruzi repl: 19; Bfl-1 A1 inh: -0.7; RanGTP-Imp inh: 9.6; Beta2AR agonist: -3

How did COc1ccccc1C(=O)NNC(=O)c1ccc(Br)cc1 do in these assays?
LANA-H2A inh: 1.6; Calb FLC: -10; Beta apoptosis: 1; UCH37 inh: 6.4; T cruzi repl: -6; Bfl-1 A1 inh: -1.7; RanGTP-Imp inh: 7.6; Beta2AR agonist: 8

What do the screens show for `CC1(c2nnc(-c3cccc(Cl)c3)o2)CC(c2c(Cl)cccc2Cl)=NO1` (stereo not given)?
LANA-H2A inh: 2.3; Calb FLC: -13; UCH37 inh: -1.3; T cruzi repl: 2; Bfl-1 A1 inh: -1.4; RanGTP-Imp inh: 0.9; Beta2AR agonist: -6

What do the screens show for `COc1cc(OC)cc(C(=O)N[C@H](C(=O)NNC(=O)c2ccc(Br)cc2)C(C)C)c1`?
LANA-H2A inh: 5.4; Beta apoptosis: -4; UCH37 inh: 4.4; Bfl-1 A1 inh: 0.1; Beta2AR agonist: -8

How did Cc1nn(C)c(C(=O)Nc2cccc(Nc3ccccc3)c2)c1[N+](=O)[O-] do in these assays?
LANA-H2A inh: -3.9; Calb FLC: -4; T cruzi repl: 18; Bfl-1 A1 inh: -0.1; RanGTP-Imp inh: 3.7; Beta2AR agonist: 3

What do the screens show for `CC(=O)c1cccc(NC(=O)c2cnn(-c3ccccc3)c2C)c1`?
LANA-H2A inh: -1.4; Calb FLC: 55; Beta apoptosis: 2; UCH37 inh: 3.3; T cruzi repl: -5; Bfl-1 A1 inh: -1.7; RanGTP-Imp inh: 0.7; Beta2AR agonist: 2

Results for CCOc1ccc(N2CC(O)(c3cccs3)[N+]3=C2CCCC3)cc1 (stereo not given) ?
LANA-H2A inh: 1.4; Calb FLC: -2; Beta apoptosis: 7; UCH37 inh: 1.1; T cruzi repl: 19; Bfl-1 A1 inh: 0.1; RanGTP-Imp inh: -1.9; Beta2AR agonist: -6

Outcome played no part in choosing rows; overall some 4.3% were active at least once.
